MT1-MMP act inh: inhibitors of human MT1-MMP activation. P50281. HT1080 RFP-PRO-GFP cells, GFP/RFP ratio fluorescence, overnight; percent of plate control window, DMSO zero. GFP/RFP ratio change, % at 20 µM. 0.061% of 360,000 active. AID 651647;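 active = GFP/RFP ratio change of at least 30% with cell ATP level not reduced by more than half and red fluorescence within 50% of control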; note: strong numbers were not always called active
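Test system: HT1080 RFP-PRO-GFP cells; Benchmarks: DMSO and RFP-L50D-GFP cell wells; Timing: cells overnight before dosing, compound overnight, 37 °C, 5% CO2; Compound: one 20 µM compound dose with 1% DMSO; Read-out: GFP/RFP fluorescence ratio.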
PABP polyA inh: PABP-poly(A) binding inhibition; P11940; PABP-poly(A) RNA binding, fluorescence polarization; inhibition, % at 35 µM; 1% of 290,000 active; AID 2014;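 active = 50% or more with normal probe brightness, or confirmed in later tests; about a fifth of its hits are not listed in these tables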;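 note: calls also rest on retests at 20 µM and on dose response follow-up; controls were probe without protein and protein plus probe with vehicle; some compounds called inactive have numbers as strong as hits; many hits fall short of the cut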
Target sequence (P11940 whole entry, looked up): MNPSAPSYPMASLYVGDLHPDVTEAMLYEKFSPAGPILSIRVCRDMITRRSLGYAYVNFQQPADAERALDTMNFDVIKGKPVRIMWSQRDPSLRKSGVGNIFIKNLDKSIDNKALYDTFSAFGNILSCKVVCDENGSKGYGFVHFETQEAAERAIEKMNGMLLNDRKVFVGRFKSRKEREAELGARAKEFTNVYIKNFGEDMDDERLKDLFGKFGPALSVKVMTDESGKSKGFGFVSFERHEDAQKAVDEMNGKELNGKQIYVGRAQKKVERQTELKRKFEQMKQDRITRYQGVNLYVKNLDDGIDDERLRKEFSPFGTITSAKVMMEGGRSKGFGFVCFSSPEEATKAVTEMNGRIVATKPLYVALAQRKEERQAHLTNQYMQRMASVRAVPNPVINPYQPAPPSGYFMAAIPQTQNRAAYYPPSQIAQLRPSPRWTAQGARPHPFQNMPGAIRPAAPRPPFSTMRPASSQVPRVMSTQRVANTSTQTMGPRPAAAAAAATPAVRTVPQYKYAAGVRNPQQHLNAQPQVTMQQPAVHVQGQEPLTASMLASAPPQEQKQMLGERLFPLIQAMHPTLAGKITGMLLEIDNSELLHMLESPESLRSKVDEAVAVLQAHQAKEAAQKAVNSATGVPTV
Rce1 inhib: yeast Ras-converting enzyme inhibition; yeast membranes, quenched prenylated peptide cleavage fluorescence; 0.27% of 290,000 active; Q03530; calls only;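 active = fall in fluorescence gain of 50% or more versus controls, with final raw signal at or below 3038400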;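 note: plate controls were neutral control wells for no effect and wells lacking membranes for full effect; tested at 10 µM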
Target sequence (Q03530 whole entry, looked up): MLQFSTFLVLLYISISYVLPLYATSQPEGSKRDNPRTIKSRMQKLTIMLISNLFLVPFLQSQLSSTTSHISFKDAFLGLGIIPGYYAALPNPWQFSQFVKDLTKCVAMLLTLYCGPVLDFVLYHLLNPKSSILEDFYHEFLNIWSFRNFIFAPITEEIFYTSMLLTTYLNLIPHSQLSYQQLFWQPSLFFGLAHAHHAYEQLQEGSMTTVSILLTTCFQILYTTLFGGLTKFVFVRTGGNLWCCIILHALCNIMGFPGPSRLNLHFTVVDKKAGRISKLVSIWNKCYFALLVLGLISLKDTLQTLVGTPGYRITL
CSC inhib: blocks cancer stem cells; cancer stem cell-like cells viability, luminescence; inhibition, % at 7.5 µM; 1.1% of 300,000 active; AID 2717;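 active = mean at 75% or more and at least half the replicates too; tested in HMLE shEcad cells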;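 note: 0% = median of negative and 100% = median of positive control wells; the first replicate is given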
eIF4H FP inh: inhibitors of RNA binding by human eIF4H | Q15056 | eIF4H fluorescence polarization binding assay | inhibition, % at 35 µM | 0.94% of 290,000 active | AID 2012;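 active = 50% or more with normal probe brightness, or confirmed in later tests; about a fifth of its hits are not listed in these tables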;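 note: calls also rest on retests at 20 µM and on dose response follow-up; 0% = protein and probe with vehicle and 100% = probe without protein; strong numbers were not always called active; many hits fall short of the cut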
HIV Env fusion: HIV envelope-mediated fusion inhibition; HeLa-JRFL Env/CEM21 cell fusion, luciferase; inhibition, % at 12.3 µM; AID 651610; 1.1% of 360,000 active;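 active = mean replicate inhibition score of at least 50 and every replicate individually at or above 50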;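 note: 0% = plate neutral controls and 100% = maraviroc near 300 nM; one replicate is shown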
Yeast UUG start: alters start codon recognition fidelity in yeast | S. cerevisiae UUG-firefly luciferase reporter, luminescence/redox ratio | activity score, % at 18.7 µM | 0.13% of 350,000 active | AID 602363;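 active = replicate mean at a twofold rise or more, about +100% in these data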;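 note: firefly luciferase made from a UUG start codon reports start codon fidelity; reporter light over untreated wells divided by growth signal over untreated wells; some hits fall short of that in this replicate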
eIF4H FP inh retest: further read-out of eIF4H FP inh, marked with its call; inhibition, %; compound at 20 µM; confirmation average;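 mean of two retest wells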
PABP polyA inh retest: recorded beside PABP polyA inh, whose call it bears; inhibition, %; compound at 20 µM; confirmation repeats;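 mean of two retest wells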
MT1-MMP act inh RFP: also measured in MT1-MMP act inh; calls as there; RFP signal change, %; measured here: RFP expression control read;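 0 = vehicle wells; hits needed this value within 50% of zero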
Active calls of the source: *; i = inactive; . = not tested or not shown; & = joins results of further samples. The list is partial. The share of hits here may be higher or lower than overall.

SMILES | MT1-MMP act inh | MT1-MMP act inh RFP | PABP polyA inh | Rce1 inhib | CSC inhib | eIF4H FP inh | HIV Env fusion | Yeast UUG start | others
COc1ccc(C)cc1NC(=O)CSc1nnc(-c2ccco2)n1Cc1ccco1 | -3.1 | 5.7 | 12.7 | i | -11.1 | 4.1 | -16.3 | -3.3
Cc1cc(C(=O)CSc2n[nH]c(N)n2)c(C)n1-c1ccc2c(c1)OCO2 | 0.4 | -5.7 | 1.9 | i | 30.7 | 83.0 | -30.8 | -31.3 | eIF4H FP inh retest=4.6;PABP polyA inh retest=3.3
Cn1c(SCC(=O)Nc2nccs2)nnc1-c1ccccn1 | 0.8 | 3.2 | -3.1 | i | -4.0 | 2.5 | -3.9 | -8.3
C[C@H]1CCC[C@]2(CC(=O)c3cc(F)ccc3O2)C1 | -1.8 | 1.7 | . | i | -38.9 | . | 8.2 | -1.2
O=C1NC2=C(C(=O)CCC2)C(c2ccc([N+](=O)[O-])cc2)N1 (centres undefined) | 2.9 | 2.0 | 8.6 | i | 7.1 | -0.9 | -0.2 | -5.7
CCC(C(=O)N1CCN(C(=O)c2ccco2)CC1)c1ccccc1 (centres undefined) | 1.9 | 3.5 | 4.0 | i | -5.8 | 5.9 | -13.6 | -13.4
Oc1ccc(Cl)cc1N=Cc1sc2ccccc2c1Cl | -3.0 | -0.3 | -0.4 | i | -12.1 | 12.2 | 25.6 | .
NC(=O)C1CCN(C(=O)CSc2nc3c(c(-c4ccccc4)n2)CCCC3)CC1 | -3.3 | -1.1 | 0.9 | i | -1.3 | 5.2 | . | -1.2
COc1ccc(C(=O)CCN2CCN(c3ccc(OC)cc3)CC2)cc1 | -0.2 | 2.4 | 4.6 | i | 7.2 | -3.6 | -0.9 | -27.3
CCOc1cnc(C(=O)NNC(=O)C(Br)C(C)C)o1 (centres undefined) | 0.6 | 4.0 | -12.0 | i | -14.4 | 6.2 | 7.9 | .
O=C(CSc1nnc2ccc(-c3ccncc3)nn12)c1cccs1 | -7.6 | -1.0 | -7.1 | i | 11.6 | 13.1 | 9.3 | -16.5
O=C(c1ccc(=O)[nH]c1)N(Cc1ccco1)C1(C(=O)NC2CCCCC2)CCCCC1 | -0.7 | -3.4 | -2.0 | i | -3.8 | -11.2 | 48.7 | -1.0
CC(Nc1cc(N2CCN(S(C)(=O)=O)CC2)ccc1[N+](=O)[O-])c1ccccc1 (centres undefined) | -1.1 | -2.5 | -1.4 | i | -28.9 | -12.6 | 3.1 | .
CCC(=O)Nc1ccccc1C(=O)C(=O)Nc1ccccc1 | 2.1 | 6.9 | 4.3 | i | 5.4 | 4.3 | 11.1 | .
Cc1cc(SCC(=O)Nc2ccc(O)cc2)n2ncc(-c3ccccc3)c2n1 | 1.5 | 1.0 | -15.8 | i | 22.3 | -16.2 | 9.9 | -32.3
NC(=S)Nc1cccc2[nH]ncc12 | 0.6 | -0.1 | -4.8 | i | -10.2 | -6.7 | -6.3 | -8.1
CCOc1ccc(N(CC(=O)NC(C)(C)C)C(=O)CCC(=O)Nc2nccs2)cc1 | -2.3 | 0.9 | -6.0 | i | -8.2 | -3.5 | 5.5 | -2.7
COc1ccc(-c2noc3c2-c2nc(C(C)C)sc2CC3)cc1 | 3.4 | 5.3 | . | i | . | . | -3.3 | 2.9
CC1CCCC(C)N1C(=O)COC(=O)C12CC3CC(CC(Cl)(C3)C1)C2 (centres undefined) | -3.9 | -6.8 | . | . | . | . | -6.5 | 4.6
Cc1nnc(NC(=O)c2cccc(S(=O)(=O)N3CCCC3)c2)s1 | 2.2 | 1.0 | -10.0 | i | 2.8 | -10.9 | 10.2 | 0.0
COc1ccc(OC)c(N(CC(=O)N2CCCCC2)S(=O)(=O)c2ccc(OC)c(OC)c2)c1 | -1.7 | 2.9 | -3.2 | i | . | -2.6 | . | 0.6
[O-]/C(=C(\C(=S)Nc1ccc(SC(F)F)cc1)[n+]1ccccc1)c1cc(Cl)ccc1Cl | -2.3 | -10.7 | -15.3 | i | 23.5 | -1.7 | -1.0 | .
CC(=O)Nc1ccc(OCC(=O)NCc2ccccc2)cc1 | 4.7 | 7.4 | 4.6 | i | 5.7 | 0.2 | 3.0 | .
C=CCN(Cc1nc(-c2ccc(OC)c(OC)c2)oc1C)C1CCS(=O)(=O)C1 (centres undefined) | 4.8 | 6.8 | -0.5 | i | 4.6 | 5.1 | 3.1 | .
O=C(COc1cccc(NC(=O)c2ccccc2)c1)c1ccc(F)cc1 | 7.1 | -9.7 | -18.6 | i | -5.5 | -13.0 | . | .
(more compounds)
SMILES | MT1-MMP act inh | MT1-MMP act inh RFP | PABP polyA inh | Rce1 inhib | CSC inhib | eIF4H FP inh | HIV Env fusion | Yeast UUG start | others
Cc1ccc(NC(=S)NCCc2ccc(S(N)(=O)=O)cc2)c(C)c1 | 3.6 | -0.2 | . | i | -12.9 | . | -13.1 | -28.3
COc1ccc(-c2ccc(C(=O)Nc3cc(OC)c(OC)c(OC)c3)c3occc23)c(C)c1 | -6.4 | -26.7 | . | . | . | . | 39.2 | -17.4
CCc1ccc(NC(=O)c2ccc3c(c2)C(=O)N(Cc2ccco2)C3=O)cc1 | -5.2 | -4.8 | 4.4* | i | -15.3 | 56.7* | 5.7 | -10.3 | eIF4H FP inh retest=95.1*;PABP polyA inh retest=94.3*
CCOC(=O)c1c(NC(=O)C(F)(OC)C(F)(F)F)sc2c1CCN(C)C2 (centres undefined) | -1.7 | 0.1 | 10.7 | i | -6.5 | 4.4 | . | -17.5
C=CCn1c(SCC(=O)NCC(=O)OCC)nnc1-c1ccccn1 | 0.2 | 1.1 | 1.4 | i | -5.9 | -0.9 | -35.0 | -6.8
N#Cc1cnn2cc(-c3ncc(C(F)(F)F)cc3Cl)cnc12 | 0.2 | 2.0 | 4.5 | i | -12.9 | -8.1 | -69.7 | -29.7
CN(C)C(=O)Oc1cccc([N+](C)(C)C)c1 | 2.3&-3.1 | 4.5&0.4 | 4.2 | i | -7.8 | -1.8 | -3.8 | 1.1&1.1&-26.4&-22.9
CCc1ccccc1NS(=O)(=O)Cc1ccccc1 | -0.2 | -2.5 | -4.0 | i | -11.4 | -0.8 | -25.5 | -18.2
Cc1ccc(CSCC(N)C(=O)O)cc1 (centres undefined) | . | . | -0.3 | i | 2.7 | 9.8 | . | .
COc1cccc(/C=C2/SC(=S)N(CCC(=O)N3CCOCC3)C2=O)c1 | -0.8 | -1.6 | -4.0 | i | . | -3.3 | -15.7 | -1.4
COc1ccc(NC(=O)COCC(=O)Nc2ccc(C)cc2)cc1 | 6.8 | -1.1 | 1.8 | i | -14.3 | -6.9 | 4.9 | 0.5
O=C(CSc1nc2[nH]ncc2c(=O)[nH]1)Nc1ccc(Cl)c(Cl)c1 | -5.4 | -0.8 | . | i | -11.0 | . | 2.0 | .
N#C/C(C(=O)NCc1ccccc1)=C1/SC(Cc2ccc(Cl)cc2)C(=O)N1c1ccccc1 (centres undefined) | -13.4 | 1.3 | 0.5 | i | -3.6 | -8.5 | -12.4 | -14.7
COc1ccc(OC)c(NC(=O)Cn2c(=O)n(CC3CCCO3)c(=O)c3cc(OC)c(OC)cc32)c1 (centres undefined) | -4.6 | -0.7 | -11.3 | i | -9.4 | -10.8 | -12.3 | -9.2
Cc1ccccc1NC(=O)Cc1nc(COC(=O)C(C)(C)Oc2ccc(Cl)cc2)cs1 | 2.8 | 7.6 | . | . | . | . | 15.4 | -11.4
CC1=CC(C)C2C(=O)N(CCC[N+](C)(C)C)C(=O)C2C1 (centres undefined) | 1.9 | 6.4 | . | i | 5.3 | . | . | -17.3
Cc1c(C(=O)NCCc2ccccc2)oc2ccc(S(=O)(=O)N3CCC4(CC3)OCCO4)cc12 | 0.7 | -7.8 | 2.2 | i | . | -2.4 | 29.3 | .
Cc1ccc(-c2nc3cc(N)ccc3o2)c(C)c1 | -2.5 | -4.0 | -8.5 | i | 18.3 | -1.1 | . | -47.1
O=C(COc1ccc(Cl)cc1)N1CCN(c2ncccn2)CC1 | -4.1 | -4.0 | -0.3 | . | -4.7 | 11.2 | . | -2.7
O=C(CCc1nnc2ccc(NCc3ccc(Cl)cc3)nn12)NC1CCCCC1 | -3.1 | -3.4 | 1.6 | i | -21.2 | -2.5 | -0.3 | -20.3
CCSc1nc(=O)n(-c2ccccc2)c(C)c1C(C)=O | 2.4 | 1.8 | -6.9 | i | 6.8 | -17.1 | . | .
COc1ccc(CNC(=O)c2c(F)c(F)c(F)c(F)c2F)cc1 | 5.7 | -0.3 | -1.5 | i | 4.4 | -0.6 | 8.9 | .
COc1ccccc1CNC(=O)COC(=O)c1ccc(Cl)nc1 | -2.6 | 1.2 | . | . | -3.0 | . | -2.1 | -9.7
COc1cc2c(C#CCCO)c(-c3ccsc3)oc(=O)c2cc1OC | 0.5 | -1.7 | . | . | 22.6 | . | -15.2 | 38.3
CCOc1ccc(N=Cc2ccccc2O)cc1 | 1.3 | 1.0 | . | . | . | . | 3.9 | -6.3

The closing 4 entries of the part before open the next one:
SMILES | MT1-MMP act inh | MT1-MMP act inh RFP | PABP polyA inh | Rce1 inhib | CSC inhib | eIF4H FP inh | HIV Env fusion | Yeast UUG start | others
COc1ccc(CNC(=O)c2c(F)c(F)c(F)c(F)c2F)cc1 | 5.7 | -0.3 | -1.5 | i | 4.4 | -0.6 | 8.9 | .
COc1ccccc1CNC(=O)COC(=O)c1ccc(Cl)nc1 | -2.6 | 1.2 | . | . | -3.0 | . | -2.1 | -9.7
COc1cc2c(C#CCCO)c(-c3ccsc3)oc(=O)c2cc1OC | 0.5 | -1.7 | . | . | 22.6 | . | -15.2 | 38.3
CCOc1ccc(N=Cc2ccccc2O)cc1 | 1.3 | 1.0 | . | . | . | . | 3.9 | -6.3
O=C(Nc1cc(C(F)(F)F)ccc1Cl)C(NCc1ccccc1)c1ccccc1 (centres undefined) | -17.7 | -15.6 | -1.0 | i | 30.9 | -9.4 | 25.7 | -17.5
Cc1cc(=O)[nH]c(N/N=C/c2ccc(-c3ccc(F)cc3)o2)n1 | -0.2 | -9.4 | 7.9 | i | 75.3* | 8.4 | -2.3 | -29.2
COCC(C)OC(=O)/C(C#N)=C\c1coc2ccc(C)cc2c1=O (centres undefined) | -4.8 | 1.3 | -12.1 | . | -7.9 | -4.0 | 8.3 | .
CCN(C(=O)Cn1nc(C)n2c(cc3cc(C)ccc32)c1=O)c1ccccc1 | -2.2 | -1.2 | 3.3 | i | -18.6 | -1.3 | 4.1 | 5.0
O=C(OCC(=O)N1CCCC1)c1cc(=O)c2ccccc2o1 | 1.1 | 3.8 | . | . | 15.4 | . | -15.3 | -10.4
CCN(CC)S(=O)(=O)c1ccc(Cl)c(NC(=O)COc2ccccc2[N+](=O)[O-])c1 | 3.7 | 0.2 | -8.1 | i | -0.2 | 2.1 | 28.8 | .
COc1cccc(C(=O)NC2CC3CCCC(C2)N3S(=O)(=O)c2ccccc2)c1 (centres undefined) | -1.8 | -5.5 | -0.2 | i | -0.4 | 3.8 | 14.5 | .
OCCCn1c(C2CCCN2c2nc(-c3ccc(F)cc3)cs2)nc2cc(Cl)c(Cl)cc21 (centres undefined) | -1.4 | -4.9 | . | i | 3.5 | . | 22.6 | -27.9
Cc1ccc(C)c(S(=O)(=O)N2CCN(C(=O)Cc3c(F)cccc3Cl)CC2)c1 | -1.5 | -7.6 | . | i | . | . | 5.7 | -6.7
O=C(O)c1ccc(OCc2occc2C(=O)O)cc1 | -3.9 | -2.2 | 2.3 | i | 9.6 | 2.2 | -1.7 | 7.8
CC(=O)N1Cc2ccccc2CC1C(=O)O (centres undefined) | -5.2 | 2.7 | 22.6 | i | -10.8 | 8.8 | -19.3 | -6.5

Assay outcomes deposited in PubChem by several laboratories.
